High-throughput results deposited in PubChem BioAssay by Southern Research Institute.
Mtb H37Rv: Confirmatory growth inhibition assay against Mycobacterium tuberculosis H37Rv, potency (AID 1949) | inhibition, % at 10 µg/mL; hits with a dose series show IC50 in µg/mL | most inactive calls were filed without a number and no value below 0 was filed | 1.6% of 100,000 active;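 active = confirmed in a dose series; inconclusive = about 50% or more but not retested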;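 also: bacteria grown 7 days with compound before Alamar blue readout; 0% = untreated bacteria and 100% = reference antibiotic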
An asterisk follows results filed as active; i = inactive; ? = inconclusive. The list is partial, so the mix of outcomes need not match the whole.

no.	smiles	Mtb H37Rv
1	NC(=O)c1ccc(CSc2ccccc2)cc1	3%
2	CCCC(=O)NC(C)c1cnn(C)c1C (stereo not given)	i
3	Cc1ccc(OC(F)F)c(NC(=S)Nc2ccc(Cl)cc2Cl)c1	i
4	CC(C)c1ccc(NC(=S)NC(C)(C)C)cc1	i
5	O=C(O)c1ccc(NCc2ccc(Br)cc2)cc1	2%
6	COc1ccc(OC)c(N(CC(=O)Nc2cccc(F)c2)S(=O)(=O)c2ccc(C)cc2)c1	i
7	CC(C)c1ccc(NC(=S)NC(=O)c2ccccc2F)cc1	2.6µg/mL*
8	CCOc1ccc(C(C)NC(=O)C2CCCC2)cc1 (stereo not given)	i
9	CN(CC(N)=O)S(=O)(=O)c1cc(Cl)ccc1Cl	i
10	COC(=O)NNC(=S)NCc1ccc(C)cc1	i
11	COc1ccc(-c2ccc[nH]2)cc1	?
12	COc1ccc(C)cc1N(CC(=O)Nc1ccc(Br)cc1)S(C)(=O)=O	i
13	O=C1CC(N2CCCCCC2)C(=O)N1c1ccc2c(c1)OCO2 (stereo not given)	i
14	CC1(C)Cc2c(c(N3CCOCC3)nc3sc(C(=O)NCc4ccccc4)c(N)c23)CO1	i
15	CCN(C(=O)COc1ccc2c(oc(=O)c3cc(OC)ccc32)c1C)C1CCCCC1	i
16	CCOc1cc(C(=O)N2CCCC2)cc(OCC)c1OCC	2%
17	FC(OC(F)(F)F)c1nc2ccc(Cl)cc2[nH]1 (stereo not given)	6%
18	COc1ccc(OC)c(NS(=O)(=O)c2ccc(NS(=O)(=O)c3ccc(OC)c(Cl)c3Cl)cc2)c1	i
19	CCc1cc(=O)oc2cc(OCc3ccc4ccccc4c3)ccc12	i
20	Cn1c(SCC#CCO)nc2ccccc2c1=O	1%
21	CC1CCCN(C(=S)Nc2ccc(Nc3ccccc3)cc2)C1 (stereo not given)	i
22	Cc1cc(C)cc(OCC(=O)Nc2nonc2NC(=O)COc2cc(C)cc(C)c2)c1	i
23	CN(C(=O)c1ccccc1)C1(C)CCS(=O)(=O)C1 (stereo not given)	1%
24	c1cn(Cc2ccc(Cn3ccnc3)cc2)cn1	i
25	O=C(CSc1nnc(-c2ccccc2)n1C1CCCCC1)N1CCN(c2ccc(F)cc2)CC1	i
26	N#Cc1sc2nccc(Nc3ccccc3)c2c1N	i
27	O=C1C(=O)N(Cc2ccccc2[N+](=O)[O-])c2ccccc21	i
28	CCCCOc1cccc(C(=O)NC(=S)Nc2ccc(Br)cc2C)c1	i
29	CCOC(=O)C1=CN(C)C=C(C(=O)OCC)C1c1ccccc1Cl	i
30	CCn1ncc(Br)c1C(=O)Nc1sc2c(c1C(N)=O)CCCC2	i
31	CCCC(=O)Nc1ccc(C(=O)O)cc1NC(=O)CCC	i
32	COC(=O)c1c(NC(=O)C(C)N2C(=O)c3ccccc3C2=O)sc2c1CCCC2 (stereo not given)	i
33	COc1ccc(CNC(=O)NC23CC4CC(CC(C4)C2)C3)cc1	0%
34	CC(=O)c1ccccc1OC(=O)COc1ccc(C)cc1	i
35	O=C(OCc1ccc(F)cc1F)c1cccc(Br)c1	i
36	C=CCNS(=O)(=O)c1ccc(OCC)cc1	i
37	c1ccc(CN2CCC(N3CCCC3)CC2)nc1	i
38	Cc1ccc(-n2cnnn2)c2cccnc12	i
39	O=C(N1CCN(S(=O)(=O)c2cccc([N+](=O)[O-])c2)CC1)N(c1ccccc1)c1ccccc1	i
40	Cc1nc2ccccc2cc1C(=O)N=Nc1c(O)[nH]c2c(C)cccc12	10%
41	COc1ccccc1C(c1c[nH]c2ccccc12)c1c[nH]c2ccccc12	6%
42	Cc1nnc(SCc2ccc(C(=O)c3ccc(Cl)cc3)o2)n1-c1ccccc1	1%
43	N/C(=N\OC(=O)CSc1ccccc1)c1cccnc1	3%
44	CC(C(=O)Nc1ccc2ccccc2c1)N1C(=O)c2ccccc2C1=O (stereo not given)	i
45	C=CCn1c(-c2ccccc2OCc2ccccc2)n[nH]c1=S	i
46	Cc1ccc(C(=O)NCCOc2cccc(C)c2)cc1	2%
47	COc1cccc(C(=O)COc2cccc(NC(=O)c3ccccc3C)c2)c1	2%
48	CCOC(=O)N1CCN(C(=O)C2CCN(S(=O)(=O)c3c(C)cc(C)cc3C)CC2)CC1	i
49	O=C(OCc1ccc([N+](=O)[O-])cc1)C1CC(=O)N(c2ccc(Br)cc2)C1 (stereo not given)	i
50	CCOc1ccc(C(=O)Nc2sc3c(c2C(N)=O)CCCC3)cc1Cl	i

Remaining list, next part
no.	smiles	Mtb H37Rv
51	COc1ccc(C2=NOC(CNC(N)=S)C2)cc1 (stereo not given)	?
52	CC(=O)Oc1ccc(C(=O)Nc2ccc(Cl)cc2C)cc1	11%
53	CN(C)CCNc1oc(-c2ccccc2Cl)nc1C#N	i
54	COc1ccc(Cc2nnc(NS(=O)(=O)c3ccccc3)s2)cc1	i
55	O=C(CC1COc2ccccc2O1)Nc1cccc(C(F)(F)F)c1 (stereo not given)	42%
56	CN1CCN(CCC(=O)Nc2ccc(F)cc2)CC1	i
57	Cc1c(NC(=O)C2CCN(S(=O)(=O)c3ccccc3)CC2)c(=O)n(-c2ccccc2)n1C	i
58	Cc1cc(NC(=O)c2cc3c(=O)n4cccc(C)c4nc3s2)no1	i
59	O=C(COc1ccc(C(=O)O)cc1)Nc1ccc(F)cc1	i
60	O=C(CSc1ccc(Cl)cc1)Nc1ccc2oc(-c3cccnc3)nc2c1	5%
61	O=C(Cc1cccc2ccccc12)NC(=S)Nc1ccc(Cl)cc1Cl	i
62	CCOc1ccccc1C(=O)Nc1ccn(Cc2ccc(C)cc2)n1	2%
63	Cc1cc(Cl)ccc1OCC(=O)O/N=C(\N)Cc1ccc([N+](=O)[O-])cc1	2%
64	Nn1c(COc2ccccc2)nnc1SCC(=O)c1ccc2c(c1)CCCC2	1%
65	Cc1sc2ncnc(SCC(=O)Nc3nc(-c4ccccc4)ns3)c2c1C	4%
66	O=C1CC(C(=O)Nc2ccc(F)c(Cl)c2)N=C(N2CCCCC2)N1 (stereo not given)	i
67	COc1ccc(CN2CCC(N3CCN(c4ccccc4)CC3)CC2)c(OC)c1OC	1%
68	OCc1cc(Cl)c(Cl)c(CO)c1O	i
69	C=CCn1c(SCC(=O)Nc2ccccc2F)nnc1-c1ccccc1	i
70	COc1ccc(OC)c(N(CC(=O)NCCSC2CCCCC2)S(=O)(=O)c2ccccc2)c1	i
71	Cc1cccc(-n2c(SCC(=O)Nc3ccccc3F)nnc2-c2ccccc2)c1	i
72	COc1ccc(C(=O)Nc2ccc(-c3n[nH]c(=S)o3)cc2)cc1OC	0%
73	Cc1ccc(S(=O)(=O)N(CC(=O)Nc2cccc(C)c2C)c2ccccc2Cl)cc1	i
74	CCC(=O)Nc1ccc(Cl)c(NC(=O)C(C)C)c1	i
75	COc1ccc(CNC(=S)Nc2ccc(S(N)(=O)=O)cc2)cc1	i
76	S=c1[nH]nc2scc(-c3ccccc3)n12	7%
77	COc1ccc(Cl)cc1-c1nc(-c2cccc([N+](=O)[O-])c2)no1	i
78	O=c1c2c(ncn1Cc1ccccc1)nc1n2CCC1	i
79	Cc1nc(NC(=O)C(C)C)ccc1Br	i
80	CNC(=O)CSCc1ccccc1Br	i
81	CSc1ccc(C2C(C(=O)N3CCOCC3)=C(C)NC3=C2C(=O)CC(C)(C)C3)cc1 (stereo not given)	i
82	CCN(C(=O)COc1ccc(C(C)C)cc1)c1ccccc1	i
83	CC(C)CC(=O)NC(=S)Nc1ccccc1NS(=O)(=O)c1cccs1	i
84	COc1ccc(NC(=O)CC2C(=O)N(c3ccc(Cl)cc3)C(=S)N2Cc2cccs2)cc1 (stereo not given)	i
85	CNC(=S)NNS(=O)(=O)c1ccc2ccccc2c1	i
86	c1ccc(-c2nn3c(C4COc5ccccc5O4)nnc3s2)cc1 (stereo not given)	i
87	Cc1ccnc(SCc2cccc(C(=O)O)c2)n1	2%
88	CC(=O)Oc1ccc2nc(-c3ccc(F)cc3)oc(=O)c2c1	i
89	COc1ccc(C(=O)CSc2nnc(CC(C)O)n2C)cc1 (stereo not given)	i
90	O=C(O)c1cccc(COCC(F)(F)F)c1	i
91	CSc1ccccc1C(=O)Nc1ccc(F)c(Cl)c1	i
92	Cc1ccc(OCCOCCOc2ncnc3ccccc23)c(Cl)c1	7%
93	Oc1ccc(Cl)cc1CNc1nc2ccccc2[nH]1	12µg/mL*
94	Cc1ccc(-n2c(-c3ccn[nH]3)n[nH]c2=S)cc1Br	i
95	Cc1cccc(N2C(=O)NC(=O)/C(=C\c3ccc(I)o3)C2=O)c1C	i
96	CCOc1ccc(NS(=O)(=O)c2ccc(NS(=O)(=O)c3ccc(OC)c(OC)c3)cc2)cc1	5%
97	O=C(Nc1ccccc1Br)C1CC(=O)N(c2ccc3c4c(cccc24)CC3)C1 (stereo not given)	i
98	O=C(Nc1cc(C(F)(F)F)ccc1Cl)c1cccc(-c2cc3ccccc3oc2=O)c1	6%
99	O=C1NC(=O)c2cc(NC(=O)C3CCCO3)ccc21 (stereo not given)	i
100	CCN(CC)c1ccc(NC(=O)c2nc3nc(C)cc(C(F)F)n3n2)cc1	i

Another view of part of the listing above:
#95 Cc1cccc(N2C(=O)NC(=O)/C(=C\c3ccc(I)o3)C2=O)c1C
  Mtb H37Rv: i
#96 CCOc1ccc(NS(=O)(=O)c2ccc(NS(=O)(=O)c3ccc(OC)c(OC)c3)cc2)cc1
  Mtb H37Rv: 5%
#97 O=C(Nc1ccccc1Br)C1CC(=O)N(c2ccc3c4c(cccc24)CC3)C1 (stereo not given)
  Mtb H37Rv: i

Next section.
no.	smiles	Mtb H37Rv
101	Cc1cc(Br)ccc1OCC(=O)N1CCN(c2ccccc2F)CC1	3%
102	O=c1c2cc(Br)ccc2oc2ccc([N+](=O)[O-])cc12	i
103	COc1cc(NC(=O)CCN2C(=O)c3ccc([N+](=O)[O-])cc3C2=O)c(C(=O)O)cc1OC	i
104	Cc1cc(C)c(C)c(S(=O)(=O)NCC(=O)Nc2ccc3c(c2)OCCO3)c1C	i
105	Cc1ccc(NC(=O)CSC2=NC(=O)CC(=O)N2)cc1	i
106	COc1ccc(OC(=O)c2cccc(OC)c2)cc1	i
107	O=C(CSc1nc2ccccc2[nH]1)Nc1ccc(N2CCOCC2)cc1	i
108	CCn1c(=O)c2c(n3c(=S)[nH]nc13)-c1ccccc1CC21CCCCC1	i
109	CCc1ccccc1N1CC(O)=C(c2nc3ccccc3c(=O)[nH]2)C1=N	i
110	CC(C)(C)C1CCc2c(sc(NC(=O)c3cc4ccccc4oc3=O)c2C(N)=O)C1 (stereo not given)	i
111	O=C(c1cccc(F)c1)N1CCNCC1	i
112	CN(C(=S)NC(=O)c1ccccc1I)c1ccccc1	2%
113	COC(=O)CNC(=O)c1cc2nc(-c3ccc(C)c(C)c3)cc(C(F)(F)F)n2n1	1%
114	O=C(CSc1nc2ccc(NC(=O)c3ccc([N+](=O)[O-])cc3)cc2s1)NC1CCCCC1	i
115	CCOCCCNc1ncc2c(n1)CC(c1cccs1)CC2=O (stereo not given)	i
116	CCCCC(=O)Nc1cccc(NC(=O)c2ccc3c(c2)OCO3)c1	i
117	O=C(NCC1CCCO1)c1cc2nc(C3CC3)cc(C(F)(F)F)n2n1 (stereo not given)	2%
118	CC1(C)CC(=O)c2cc3c(N)c(C(=O)Nc4nc5ccccc5s4)sc3nc2C1	i
119	CCc1ccc(OCc2nc(Cc3ccc(Cl)cc3)no2)c(Br)c1	5%
120	Cc1ccc(NC(=O)C2CCN(C(=O)c3ccccc3C)CC2)c(C)c1	i

A draw from above in order of count of non-hydrogen atoms, falling.
no.	smiles	Mtb H37Rv
114	O=C(CSc1nc2ccc(NC(=O)c3ccc([N+](=O)[O-])cc3)cc2s1)NC1CCCCC1	i
118	CC1(C)CC(=O)c2cc3c(N)c(C(=O)Nc4nc5ccccc5s4)sc3nc2C1	i
117	O=C(NCC1CCCO1)c1cc2nc(C3CC3)cc(C(F)(F)F)n2n1 (stereo not given)	2%
115	CCOCCCNc1ncc2c(n1)CC(c1cccs1)CC2=O (stereo not given)	i
112	CN(C(=S)NC(=O)c1ccccc1I)c1ccccc1	2%

Returning to the listing, starting three compounds before the break.
no.	smiles	Mtb H37Rv
118	CC1(C)CC(=O)c2cc3c(N)c(C(=O)Nc4nc5ccccc5s4)sc3nc2C1	i
119	CCc1ccc(OCc2nc(Cc3ccc(Cl)cc3)no2)c(Br)c1	5%
120	Cc1ccc(NC(=O)C2CCN(C(=O)c3ccccc3C)CC2)c(C)c1	i
121	COc1cc(SC)ccc1C(=O)Nc1nc2c(s1)C(=O)CC(C)(C)C2	i
122	COc1cc(CNc2nccs2)cc(Br)c1OCc1ccc(F)cc1	11µg/mL*
123	CCS(=O)(=O)N1CCN(C(C)C)CC1	i
124	COc1ccc(CCNC(=O)C2OCCc3ccccc32)cc1OC (stereo not given)	i
125	Cc1ccc(SCC(=O)N2CCC(C(N)=O)CC2)cc1	i
126	CCOC(=O)N1CCN(S(=O)(=O)c2ccc(C)cc2)C1c1ccc(OC)cc1 (stereo not given)	0%
127	COc1ccc(N2CCN(C(=O)c3sccc3C)CC2)cc1	i
128	O=C(CCCOc1ccc(Cl)cc1Cl)N1CCC2(CC1)OCCO2	i
129	Cc1cc2oc(C(=O)Nc3ccccc3F)c(C)c2cc1C	3%
130	O=C(c1ccc(Cl)cc1)N(Cc1ccc(Br)cc1)N1C(=O)CCC1=O	i
131	O=C(Nc1nccs1)c1ccc2c(c1)C(=O)N(CC1CCCO1)C2=O (stereo not given)	4%
132	COc1cccc(NC(=O)CN(c2cc(C)ccc2OC)S(C)(=O)=O)c1	i
133	Cc1ccc(NC(=O)C2OCCc3ccccc32)cc1Cl (stereo not given)	i
134	CS(=O)(=O)N(CC(=O)N1CCN(Cc2ccc3c(c2)OCO3)CC1)c1ccccc1Cl	i
135	O=C(CSc1nnc(Cc2cccs2)n1-c1ccccc1)Nc1ccc2c(c1)OCO2	i
136	COc1cc2ccccc2cc1C(=O)Nc1ccc(F)cc1F	i
137	O=C1CC(Nc2ccc(N3CCOCC3)cc2)C(=O)N1C1CCCCC1 (stereo not given)	49%
138	CCn1c(SCC(=O)N2CCC(C(N)=O)(N3CCCCC3)CC2)nnc1-c1ccccc1	i
